From PubChem BioAssay
Vaccinia stage: blocks a specific stage of Vaccinia orthopoxvirus infection; Vaccinia-infected cells, mCherry/Venus stage reporter fluorescence; hits give low values; some inactives read as strong as hits; activity change (mCherry), % (no concentration beside the values); actives 0.01% (n = 89,000);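 active = mCherry past -33% and 40 or more points under the early reporter, replicates agreeing; inconclusive = past -33% without that gap or agreement; tested in A549 cells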;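 also: scaled between vehicle wells and reference inhibitor wells; 23 nL library stock went into each well; one replicate is shown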
Vaccinia stage Venus: also measured in Vaccinia stage; calls as there; activity change (Venus), %; measured here: Venus reporter, other viral stage;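 negative = less Venus signal; first of two replicates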
Starred values were filed as active, the others as inactive; ? = inconclusive; / = no result given. Only part of the results is shown; the hit share may differ from the screen's.

SMILES	Vaccinia stage	Vaccinia stage Venus
CO[C@@H]1CN(C)C(=O)c2ccc(NC(=O)c3cc(C)on3)cc2OC[C@@H](C)N(CC2CC2)C[C@@H]1C	5	1
C[C@H]1CN([C@@H](C)CO)C(=O)c2cc(C#Cc3ccccc3)cnc2O[C@H]1CN(C)C(=O)C1CC1	8	5
CCS(=O)(=O)N1[C@H](CO)[C@@H](c2ccccc2)C12CN(C(=O)C1CCC1)C2	8	8
O=C(CC(F)(F)F)N1C[C@@H]2[C@H](c3ccccc31)[C@@H](CO)N2C(=O)Cc1ccccc1	7	6
CCCNC(=O)N1CC2(CCN(CC3CCCCC3)CC2)c2c([nH]c3cc(OC)ccc23)[C@@H]1CO	-27	-20
C[C@@H]1CN([C@H](C)CO)C(=O)c2ccccc2-c2ccccc2CO[C@H]1CN(C)S(=O)(=O)c1ccccc1	31	28
C[C@@H]1CN([C@H](C)CO)C(=O)c2cc(-c3cccnc3)cnc2O[C@H]1CN(C)C(=O)Cc1cccnc1	8	0
COCC(=O)N1CCC2(CC1)CN(Cc1ccccc1F)[C@H](CO)c1[nH]c3cc(OC)ccc3c12	9	4
CCNC(=O)C[C@@H]1CC[C@@H]2[C@H](COC[C@H](O)CN2C(=O)c2ccccn2)O1	14	2
Cc1ccc(S(=O)(=O)N(C)C[C@H]2Oc3c(NC(=O)NC(C)C)cccc3C(=O)N([C@@H](C)CO)C[C@@H]2C)cc1	-7	-12
C[C@@H]1CCCCO[C@H](CN(C)S(=O)(=O)c2ccc(F)cc2)[C@@H](C)CN([C@@H](C)CO)C(=O)c2cc(NC(=O)CCCN(C)C)ccc2O1	4	0
CO[C@@H]1CN(C)C(=O)c2cc(NC(=O)c3ccc(Oc4ccccc4)cc3)ccc2OC[C@@H](C)NC[C@H]1C	?	/
CCCC(=O)Nc1ccc2c(c1)C(=O)N(C)C[C@H](OC)[C@H](C)CN(C(=O)CC1CC1)[C@@H](C)CO2	15	10
O=C(N[C@H]1CC[C@@H](CCNS(=O)(=O)c2ccccc2Cl)O[C@H]1CO)c1ccc(F)cc1	-3	5
COc1cccc(S(=O)(=O)N[C@H]2C=C[C@H](CC(=O)NCc3ccc(F)cc3)O[C@@H]2CO)c1	10	8
C[C@H](CO)N1C[C@H](C)[C@H](CN(C)C(=O)Nc2ccccc2)Oc2cc(C#C[C@@H](C)O)ccc2S1(=O)=O	0	-1
C[C@@H]1CCCCO[C@@H](CN(C)C(=O)Nc2ccc(C(F)(F)F)cc2)[C@@H](C)CN([C@H](C)CO)C(=O)c2cc(NC(=O)c3ccncc3)ccc2O1	-25	-13
O=C(NC1CCCC1)N1CC(=O)N2[C@H](CO)[C@H](c3ccc(-c4ccc(F)cc4)cc3)[C@@H]2C1	-11	-7
O=C1CN(Cc2ccc(F)cc2)C[C@H]2[C@H](c3ccc(-c4ccccc4)cc3)[C@@H](CO)N12	12	10
CO[C@@H]1CN(C)C(=O)c2cc(NS(=O)(=O)c3ccccc3F)ccc2OC[C@@H](C)N(S(C)(=O)=O)C[C@H]1C	3	-1

Brought forward from above: 6 compounds; new compounds follow.
SMILES	Vaccinia stage	Vaccinia stage Venus
COc1cccc(S(=O)(=O)N[C@H]2C=C[C@H](CC(=O)NCc3ccc(F)cc3)O[C@@H]2CO)c1	10	8
C[C@H](CO)N1C[C@H](C)[C@H](CN(C)C(=O)Nc2ccccc2)Oc2cc(C#C[C@@H](C)O)ccc2S1(=O)=O	0	-1
C[C@@H]1CCCCO[C@@H](CN(C)C(=O)Nc2ccc(C(F)(F)F)cc2)[C@@H](C)CN([C@H](C)CO)C(=O)c2cc(NC(=O)c3ccncc3)ccc2O1	-25	-13
O=C(NC1CCCC1)N1CC(=O)N2[C@H](CO)[C@H](c3ccc(-c4ccc(F)cc4)cc3)[C@@H]2C1	-11	-7
O=C1CN(Cc2ccc(F)cc2)C[C@H]2[C@H](c3ccc(-c4ccccc4)cc3)[C@@H](CO)N12	12	10
CO[C@@H]1CN(C)C(=O)c2cc(NS(=O)(=O)c3ccccc3F)ccc2OC[C@@H](C)N(S(C)(=O)=O)C[C@H]1C	3	-1
CC(C)NC(=O)Nc1cccc2c1O[C@H](CN(C)Cc1ccc(-c3ccccc3)cc1)[C@@H](C)CN([C@H](C)CO)C2=O	-21	-14
CO[C@H]1CN(C)C(=O)c2cc(NC(=O)Nc3ccccc3F)ccc2OC[C@@H](C)N(C)C[C@H]1C	-3	3
O=C(c1ccccn1)N1CC[C@@H]2[C@@H](CO)Nc3ccc(Br)cc3[C@@H]21	7	8
CC(=O)N1[C@@H]2CN(S(=O)(=O)c3ccccc3F)c3ccccc3[C@@H]2[C@@H]1CO	5	4
C[C@H](CO)N1C[C@H](C)[C@H](CN(C)Cc2ccncc2)Oc2cc(C#CCN(C)C)ccc2S1(=O)=O	0	-3
Cc1noc(C)c1NC(=O)N(C)C[C@H]1Oc2ccc(NC(=O)CCCCCC(=O)Nc3ccccc3N)cc2CC(=O)N([C@@H](C)CO)C[C@@H]1C	6	4
Cc1ccccc1S(=O)(=O)N1CCCCN2[C@H](CO)[C@@H](c3ccc(C#CCN(C)C)cc3)[C@H]2C1	-26	-22
O=C(C[C@H]1C[C@@H]2c3cc(NC(=O)C4CCOCC4)ccc3O[C@@H]2[C@H](CO)O1)NCC(F)(F)F	19	13
CC(C)c1cn(CC[C@@H]2CC[C@H](NC(=O)C3CCC3)[C@H](CO)O2)nn1	9	5
CC(C)NC(=O)Nc1ccc2c(c1)CC(=O)N([C@@H](C)CO)C[C@@H](C)[C@@H](CN(C)Cc1ccc3c(c1)OCO3)O2	0	7
C[C@@H]1CN([C@H](C)CO)C(=O)c2cc(NC(=O)Nc3ccccc3)ccc2O[C@@H](C)CCCCO[C@@H]1CN(C)C(=O)NC1CCCCC1	14	16
COCC(=O)N1CC(=O)N2[C@H](C1)[C@@H](c1ccc(-c3ccccc3)cc1)[C@@H]2CO	23	-1
Cc1noc(C)c1NC(=O)N(C)C[C@H]1Oc2ccc(NS(=O)(=O)c3ccc(Cl)cc3)cc2CC(=O)N([C@H](C)CO)C[C@H]1C	-9	3
CCCN(C)C[C@@H]1Oc2cc(-c3ccc(OC)cc3)ccc2S(=O)(=O)N([C@@H](C)CO)C[C@@H]1C	-29	-26
CN(C)CCCNC(=O)C[C@@H]1C=C[C@H](NC(=O)c2ccccc2F)[C@@H](CO)O1	1	-1
C[C@@H]1CCCCO[C@@H](CN(C)CC2CCCCC2)[C@H](C)CN([C@H](C)CO)C(=O)c2cc(NC(=O)c3ccncc3)ccc2O1	-14	-17
O=C(C[C@H]1CC[C@@H]2[C@H](COC[C@@H](O)CN2Cc2ccncc2)O1)NCc1ccncc1	7	-1
COC(=O)[C@H]1[C@H](CO)[C@H]2Cn3c(ccc(-c4ccccc4F)c3=O)[C@H]2N1C(=O)c1cnccn1	5	5
O=C(c1ccncc1)N1CC[C@@H]2[C@@H](CO)Nc3ccc(-c4ccccc4)cc3[C@@H]21	-5	-5
CCC(=O)N[C@@H]1CC[C@@H](CC(=O)NCc2ccccc2OC)O[C@H]1CO	-3	-2
COc1ccccc1CNC(=O)C[C@@H]1C=C[C@H](NC(=O)CN(C)C)[C@H](CO)O1	19	17
CCCNC(=O)[C@H]1[C@H](CO)[C@H]2Cn3c(cccc3=O)[C@@H]1N2S(=O)(=O)c1ccccc1C	11	4
C[C@@H]1CN([C@@H](C)CO)C(=O)Cc2cc(NC(=O)Nc3ccc(C(F)(F)F)cc3)ccc2O[C@H]1CN(C)S(C)(=O)=O	-11	-15
CO[C@H]1CN(C)C(=O)c2cc(NS(C)(=O)=O)ccc2OC[C@H](C)N(C(=O)C2CC2)C[C@@H]1C	9	12
Cc1cccc(CN(C)C[C@H]2OCc3cn(nn3)CCCC(=O)N([C@H](C)CO)C[C@H]2C)c1	5	7
CC=Cc1ccc2n(c1=O)C[C@@H]1[C@@H](CO)[C@H](C(=O)NCC)[C@H]2N1CCC(F)(F)F (mixture of isomers)	3	2
CC(C)(C)OC(=O)COc1cccc(C(=O)CCN2CCOCC2)c1	8	7
O=C(C1CCOCC1)N1CC(=O)N2[C@@H](CO)[C@@H](c3ccc(C#CCc4ccccc4)cc3)[C@@H]2C1	9	8
O=C(NCc1nc2ccccc2[nH]1)C1=C[C@@H](c2ccc(Br)cc2)C[C@@H](OCc2ccc(CO)cc2)O1	-21	-17
C[C@H](CO)N1C[C@H](C)[C@@H](CN(C)C(=O)NC2CCCCC2)Oc2c(NC(=O)c3ccc(-c4nccs4)cc3)cccc2C1=O	-7	-3
COCc1cn(CC[C@H]2CC[C@H](NC(=O)Nc3ccc(Cl)cc3)[C@@H](CO)O2)nn1	1	2
COCC(=O)Nc1ccc2c(c1)OC[C@H](C)N(CCC(F)(F)F)C[C@H](C)[C@H](OC)CN(C)C2=O	7	9
C[C@@H]1CN([C@@H](C)CO)C(=O)Cc2cc(NC(=O)Nc3cccc4ccccc34)ccc2O[C@H]1CN(C)CC1CCCCC1	-28	-16
CO[C@H]1CN(C)C(=O)c2cc(NC(C)=O)ccc2OC[C@H](C)N(CC2CC2)C[C@@H]1C	1	5
C[C@H]1CN([C@@H](C)CO)C(=O)c2cc(NC(=O)CCC(F)(F)F)ccc2O[C@@H]1CN(C)C(=O)Nc1ccc(C(F)(F)F)cc1	13	8
N#Cc1cccc(-c2ccc([C@H]3[C@@H](CO)N[C@@H]3CNC(=O)C3CCC3)cc2)c1	-5	-2
C[C@H]1CN([C@@H](C)CO)C(=O)Cc2cc(NC(=O)CCC(F)(F)F)ccc2O[C@H]1CN(C)C(=O)NC1CCCCC1	1	1
Cc1ccc(-c2ccc3c(c2)O[C@H](CN(C)C(=O)NC(C)C)[C@H](C)CN([C@H](C)CO)S3(=O)=O)cc1	-10	-14
CCCNC(=O)N1C[C@@H](C)[C@@H](OC)CN(C)C(=O)c2ccc(NC(=O)CCC)cc2OC[C@@H]1C	7	0
C[C@@H](O)C#Cc1ccc([C@@H]2[C@H]3CN(C(=O)c4ccc(F)cc4)CCCCN3[C@H]2CO)cc1	24	3
CCCNC(=O)N1[C@H](CO)[C@H](c2ccccc2)[C@@H]1CNC(=O)c1cccc(F)c1	-9	3
CCC(=O)Nc1ccc2c(c1)C(=O)N(C)C[C@@H](OC)[C@H](C)CN(C(=O)c1cnccn1)[C@@H](C)CO2	5	2
C[C@H](CO)N1C[C@H](C)[C@@H](CN(C)Cc2ccc3c(c2)OCO3)Oc2ccc(NS(=O)(=O)c3cn(C)cn3)cc2C1=O	15	17
CN1C(=O)c2cc(NC(=O)C3CC3)ccc2OC[C@H]2O[C@@H](CC(=O)O)CC[C@H]21	5	8
CC(C)NC(=O)N1[C@H](CO)[C@@H](c2ccccc2)C12CN(C(=O)Cc1cccnc1)C2	2	8
C[C@@H](NC(=O)[C@@H]1[C@@H](CO)[C@@H]2Cn3c(ccc(-c4ccccc4)c3=O)[C@H]1N2C)c1ccccc1	-7	-5
C[C@@H]1CN([C@H](C)CO)C(=O)c2ccccc2-c2ccccc2CO[C@@H]1CN(C)S(=O)(=O)c1ccsc1	14	12
C[C@H]1CN([C@@H](C)CO)C(=O)c2cc(NC(=O)Nc3ccc4c(c3)OCO4)ccc2O[C@@H]1CN(C)C(=O)Nc1cccc2ccccc12	15	10
CC(C)COC(=O)N(C)C[C@H]1OCc2cn(nn2)CCCC(=O)N([C@H](C)CO)C[C@H]1C	9	4
Cc1cc(C(=O)Nc2ccc3c(c2)C(=O)N(C)[C@@H]2CC[C@H](CC(=O)N[C@@H](C)c4ccccc4)O[C@@H]2CO3)no1	1	2
COc1ccc(CN(C)C[C@@H]2Oc3c(NC(=O)Nc4ccc5c(c4)OCO5)cccc3C(=O)N([C@H](C)CO)C[C@H]2C)cc1	-3	0
Cc1ccc(S(=O)(=O)N(C)C[C@@H]2Oc3ccc(NC(=O)CCC(F)(F)F)cc3C(=O)N([C@H](C)CO)C[C@H]2C)cc1	-5	-1
CC(C)CC#Cc1cnc2c(c1)C(=O)N([C@H](C)CO)C[C@@H](C)[C@@H](CN(C)Cc1cncnc1)O2	-6	-1
C[C@H](CO)N1C[C@H](C)[C@H](CN(C)C(=O)Nc2ccc(F)cc2)Oc2ncc(C#CC3CC3)cc2C1=O	-6	-9
OC[C@H]1[C@H](c2ccc(C#Cc3cccnc3)cc2)[C@@H]2CN(Cc3ccccc3F)CCCCN12	-14	-35
O=C(Nc1ccc2c(c1)OCO2)N[C@H]1CC[C@@H](CCNC(=O)C2CCCCC2)O[C@H]1CO	0	3
O=C(C[C@H]1C=C[C@@H](NC(=O)C2CCOCC2)[C@@H](CO)O1)Nc1nccs1	1	7
CCC(=O)Nc1ccc2c(c1)C(=O)N(C)[C@@H]1CC[C@H](CC(=O)NCCc3ccccc3)O[C@H]1CO2	-1	3
C[C@H](CO)N1C[C@H](C)[C@@H](CN(C)C(=O)CCCN(C)C)OCCCC[C@H](C)Oc2ccc(N(C)C)cc2C1=O	6	7
C[C@@H]1CN([C@H](C)CO)C(=O)c2cc(NC(=O)Cc3cn(C)c4ccccc34)ccc2O[C@@H]1CN(C)Cc1ccncc1	21	9
CN(C)Cc1cn(CC[C@@H]2CC[C@H](N)[C@@H](CO)O2)nn1	12	16
CCC(=O)N1CC2(CCN(Cc3ccc(F)cc3)CC2)c2c(n(C)c3cc(OC)ccc23)[C@H]1CO	?	/
O=C1CN(S(=O)(=O)Cc2ccccc2)C[C@@H]2[C@@H](c3ccc(C#Cc4ccc(F)cc4)cc3)[C@H](CO)N12	?	/
